Assay outcomes as filed in PubChem BioAssay.
GIV Gai3 FP – GIV-Galpha-i interaction inhibition; 0.42% of 210,000 active; Galpha-i3/FITC-GIV peptide fluorescence polarization, 90 min; stronger effect = lower value; scaled: aluminum fluoride 0%, vehicle 100%; P08753; percent of control (FP), % (no concentration beside the values);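 active means replicate mean at 85% of control or lower, very high polarization wells dropped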;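 further: wells of about 15 µL received 100 nL stock; the first replicate is given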
Target sequence (P08753 whole entry, looked up): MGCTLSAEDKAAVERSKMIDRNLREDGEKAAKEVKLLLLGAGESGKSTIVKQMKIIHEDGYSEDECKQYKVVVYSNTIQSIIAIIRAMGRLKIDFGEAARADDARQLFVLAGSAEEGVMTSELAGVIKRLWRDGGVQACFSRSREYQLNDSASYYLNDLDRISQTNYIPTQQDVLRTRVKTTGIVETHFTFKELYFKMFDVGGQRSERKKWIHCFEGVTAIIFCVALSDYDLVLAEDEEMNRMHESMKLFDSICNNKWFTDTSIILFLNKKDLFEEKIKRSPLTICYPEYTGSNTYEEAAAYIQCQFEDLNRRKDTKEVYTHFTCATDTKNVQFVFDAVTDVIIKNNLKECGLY
* marks the source's active call; other numbers are inactive results. Some of the compounds tested (hit frequency here may not be typical).

SMILES | GIV Gai3 FP
Cc1cccc(-c2nccc(Oc3cccc(C(=O)NCCc4ccccc4)c3)n2)c1 | 108
c1ccc(-c2nc(-c3ccc4c(c3)sc3ccccc34)c(-c3ccccc3)[nH]2)cc1 | 105
O=C1/C(=C/c2ccc(Br)cc2)C=C(c2ccccc2)N1c1ccccc1Br | 119
Cc1ccc(-c2nc(-c3ccccc3)c(-c3ccccc3)[nH]2)cc1[N+](=O)[O-] | 111
O=C1C2C3c4ccccc4C(c4ccccc43)C2C(=O)N1CN(C(=O)C(F)(F)F)c1ccccc1 (centres undefined) | 110
Cc1cc(C2CCCN2C(=O)C2CCCC2)on1 (centres undefined) | 98
COc1ccc(N2C(=O)CSC2c2ccncc2)cc1 (centres undefined) | 105
CCn1nnc2c(NCCCOC)ncnc21 | 107
CCc1ccc(NC(=O)c2ccc(F)c(S(=O)(=O)N3CCN(Cc4ccc5c(c4)OCO5)CC3)c2)cc1 | 104
CCCCC(=O)N1CCCN(c2cc(=O)n(C(C)C)c(=O)n2C(C)C)CC1 | 97
O=c1/c(=C\c2cn(Cc3ccc(Cl)c(Cl)c3)c3ccccc23)sc2nc3ccccc3n12 | 117
COc1ccccc1-n1c(=S)[nH]c2c(sc(=S)n2-c2ccccc2C)c1=O | 108
COc1cccc(NC(=O)C2Oc3ccccc3NC2=O)c1 (centres undefined) | 99
COc1ccccc1NS(=O)(=O)c1c(C)nn(-c2ccc(-c3ccc(C)cc3)nn2)c1C | 107
CCS(=O)(=O)Nc1ccc(C2(C(=O)NC3CCCC3)CCC2)cc1 | 105
Cc1ccc(S(=O)(=O)Nn2c(SCC(=O)NCCc3ccccc3)nc3ccccc3c2=O)cc1 | 115
COc1cc(/C=C2/C(=N)N3C(c4ccccc4)=CSC3=NC2=O)ccc1OCCOc1ccccc1 | 106
COC(=O)c1cc(NC(=O)CSc2nc3[nH]ncc3c(=O)n2-c2cccc(C(F)(F)F)c2)cc(C(=O)OC)c1 | 102
COc1cccc(-c2noc(-c3cc(N4CCN(C)CC4)nc4ccccc34)n2)c1OC | 104
COc1cc([N+](=O)[O-])cc2c1OC1(C=C2)N(c2ccccc2)c2ccccc2C1(C)C (centres undefined) | 111
COc1ccc2cc(C(=O)N3CCC(CC(=O)NCCc4c[nH]c5ccc(C)cc45)CC3)[nH]c2c1 | 103
O=c1c2cc(-c3cccs3)nn2ccn1Cc1noc(CN2CCCCCCC2)n1 | 102
COc1cccc(CNC(=O)C2CCCN(C(=O)c3cc(C)cc(C)c3)C2)c1 (centres undefined) | 102
O=c1ccc2cc(S(=O)(=O)NCCN3CCCC3)ccc2[nH]1 | 101
CNC(=O)c1cn2c3c(cccc3c1=O)CC2 | 109

Remaining list, next part
SMILES | GIV Gai3 FP
COc1nc(N(C)C)nc(N(OC)S(=O)(=O)c2ccccc2)n1 | 115
CC(=O)N1CC(C)(C)c2cc(S(=O)(=O)NCC3CCCO3)ccc21 (centres undefined) | 105
COCCn1ccc2c(OCC(=O)N(C(C)C)C(C)C)cccc2c1=O | 104
Cn1c(CNC(=O)c2cccs2)nnc1SCC(=O)N1N=C(c2cccs2)CC1c1ccc(F)cc1 (centres undefined) | 106
Cc1cccc(-c2nc(Nc3c(F)cccc3F)c3ccccc3n2)c1 | 109
O=C1C2C3c4ccccc4C(c4ccccc43)C2C(=O)N1CNc1ccc2c(c1)oc1ccccc12 (centres undefined) | 108
CCC(C)NC(=O)c1cc2c(n(-c3ccc(F)cc3)c1=O)CCCC2=O (centres undefined) | 95
Cc1[nH]c(C)c(S(=O)(=O)NCc2cccs2)c1-c1nc(C2CC2)no1 | 101
c1ccc(CN2CCN(c3ncnc4scc(-c5ccccc5)c34)CC2)cc1 | 108
COc1ccc(/C=c2/sc3nc(-c4ccc(Cl)cc4)nn3c2=O)c(OC)c1 | 116
O=C(NCc1c(-c2ccc(F)cc2)nc2n1CCS2)c1ccccc1Br | 94
CCCCn1nc2c(S(=O)(=O)N3CCCC3)cccn2c1=O | 106
O=C1C2CC=C(Cl)CC2C(=O)N1CN(Cc1ccccc1)CN1C(=O)C2CC=C(Cl)CC2C1=O (centres undefined) | 105
CCCN1CCN(S(=O)(=O)c2cc(-c3nnc(C4CCC4)o3)co2)CC1 | 98
CCc1ccc(NC(=O)C2CCN(c3ncnc4onc(-c5ccc(F)cc5)c34)CC2)cc1 | 98
O=C(NC(/C=C/c1ccccc1)c1cc(Cl)c2cccnc2c1O)c1cccnc1 (centres undefined) | 104
Cc1ccccc1-c1ncccc1C(=O)N1CCC(C(=O)N2CCN(C3CCCCC3)CC2)CC1 | 105
CCCCCCOc1cccc(-n2c(-c3ccc(Cl)cc3)cn3c4c(=O)n(C)c(=O)n(C)c4nc23)c1 | 113
COC(=O)CON1C(=O)CN(C(C)=O)C1c1ccc(Cl)cc1Cl (centres undefined) | 107
COCCNC(=O)c1nnc(-c2ccc(S(=O)(=O)N(C)C)cc2)o1 | 110
CCCN1CC=C2C(C#N)=C(N)C(C#N)(C#N)C(c3cccc(OC)c3OC)C2C1 (centres undefined) | 111
O=C(NC1CCCCC1)c1cccc(-n2cnnc2)n1 | 99
Cc1ccc(NC(=O)Cn2ncn3nc4c(c3c2=O)CCCC4)cc1 | 106
CCOC(=O)c1c(NC(=O)CSc2nnc(CNC(=O)Cc3ccccc3)n2Cc2ccccc2)sc2c1CCC2 | 106
O=C(CSCC(=O)Nc1ccc2nc(SCC(=O)Nc3ccccc3)sc2c1)Nc1ccccc1 | 104

Two compounds drawn at random from the list so far, as already listed:
SMILES | GIV Gai3 FP
COCCNC(=O)c1nnc(-c2ccc(S(=O)(=O)N(C)C)cc2)o1 | 110
COC(=O)CON1C(=O)CN(C(C)=O)C1c1ccc(Cl)cc1Cl (centres undefined) | 107

Continuation:
SMILES | GIV Gai3 FP
Cc1cn2c(=O)cc(CN(Cc3ccc(C(C)C)cc3)CC(C)C)nc2s1 | 125
COC(=O)c1cc(OCc2ccc(F)cc2)c2cc(F)ccc2n1 | 102
OC(CN(C1CCCCC1)C1CCCCC1)Cn1c2ccccc2c2ccccc21 (centres undefined) | 126
Cc1cc(C2CCCN2Cc2ccc(OC(C)C)cc2)no1 (centres undefined) | 112
CCCS(=O)(=O)c1c(S(=O)(=O)CCC)c2c3ccccc3ccn2c1C(=O)N/N=C/c1ccc(OC)c(OC)c1 | 104
O=C(NCCN1CCN(c2ccccc2F)CC1)c1cccc(-c2nc(-c3ccccc3)no2)c1 | 107
CCOc1cc(-c2nc3sc4c(c3c(=O)[nH]2)CCCC4)ccc1OCCOc1cc(C)cc(CC)c1 | 103
O=C(NCc1ccc2c(c1)OCO2)C1CCN(c2cc(C(=O)N3CCCC3)ccn2)CC1 | 100
CN(c1ccc(Cl)cc1)S(=O)(=O)c1ccc2[nH]cc(C(=O)NCCN3CCOCC3)c(=O)c2c1 | 103
COc1ccc(N2C=NS(=O)(=O)c3cccnc32)cc1 | 101
COc1ccc(CCNC(=O)CSc2nc3[nH]ncc3c(=O)n2-c2ccc(Br)cc2)cc1OC | 103
Cc1ccsc1C1C(C#N)=C(N)N(c2ccc(S(N)(=O)=O)cc2)C2=C1C(=O)CC(C)(C)C2 (centres undefined) | 106
O=C(CCC1CCCC1)N1CCc2c([nH]c3ccccc23)C1c1cccnc1 (centres undefined) | 108
COc1ccccc1N1CCN(c2ncnc3c2CCC3)CC1 | 100
O=C(O)CCC(=O)Nc1sc2c(c1C(=O)Nc1ccccc1)CCC2 | 114
COc1cccc(N2CCN(c3ncnc4c3cnn4-c3cccc(C)c3)CC2)c1 | 113
CC1CCN(C(=O)C2CCCN(c3ncc(-c4ccc(F)cc4)cn3)C2)CC1 (centres undefined) | 102
CCOC(=O)C(C)NC(=O)N1CCCC1c1c(C)noc1CC (centres undefined) | 97
C=CCn1c(SCC(=O)c2c[nH]c3ccccc23)nnc1-c1cccnc1 | 101
COc1cccc(-c2cc(-c3ccccc3)c(C#N)c(SCC(=O)NC3CC3)n2)c1 | 113
Cc1noc(COC2CCCN(S(=O)(=O)C3CC3)C2)n1 (centres undefined) | 105
CCc1ccc(S(=O)(=O)Nc2ccc(-c3nnc(Cc4ccc(C)cc4)o3)cc2)cc1 | 102
COc1ccc(C2=N/C(=C/c3ccccc3OC(C)=O)C(=O)O2)cc1Br | 111
CC1CN(C(=O)C2CCN(S(=O)(=O)c3cccnc3)CC2)c2ccccc2O1 (centres undefined) | 105
Cn1c(CN2CCN(C(=O)c3ccc4c(c3)OCO4)CC2)nc2cc(C(=O)N3CCCC3)ccc21 | 104

Next section.
SMILES | GIV Gai3 FP
O=C(CSc1n[nH]c(-c2ccncc2)n1)c1ccc(Br)cc1 | 100
CCc1ccccc1NC(=O)c1ccc(F)c(S(=O)(=O)NCCc2ccccc2)c1 | 108
CCc1ccc(-c2noc(CSc3nc4cc5c(cc4c(=O)n3CC3CCCO3)OCO5)n2)cc1 (centres undefined) | 105
COc1nccnc1NS(=O)(=O)c1ccc(NC(=O)c2cc3ccccc3oc2=O)cc1 | 103
COc1cc(C2C(N3C(=O)c4ccccc4C3=O)C(=O)N2c2cccc(C)c2)cc(OC)c1OC (centres undefined) | 106
O=C(CC1CCCCC1)Nc1cc(F)c2nc(N3CCOCC3)ccc2c1 | 107
Cc1ccc(F)cc1S(=O)(=O)N1CCCC(C)(C(=O)NCc2ccc(F)cc2)C1 (centres undefined) | 104
CCCS(=O)(=O)c1c(S(=O)(=O)CCC)c2c(C)cccn2c1C(=O)N/N=C/c1ccc(OC)c(OC)c1 | 117
Cc1ccc(S(=O)(=O)N(CC(O)CN2CCCCC2)c2cccc3ccccc23)cc1 (centres undefined) | 110
CCOC(=O)c1c(S(=O)(=O)N2CCC(C(=O)Nc3ccc(Br)c(C)c3)CC2)c(C)n(C)c1C | 105
Cc1ccc(CNC(=O)CN2C(=O)C3CCCN3C(=O)c3cc(F)ccc32)o1 (centres undefined) | 110
CCN(CC)c1ccc2cc(-c3nc(-c4ccc(Br)cc4)cs3)c(=Nc3cccc(OC)c3)oc2c1 | 145
CCC1C(=O)N=C(SCC(=O)Nc2ccccn2)NC1=O (centres undefined) | 109
COc1cccc(-n2c(=S)sc3c(=O)n(-c4ccccc4C)c(=S)[nH]c32)c1 | 111
O=[N+]([O-])c1cccc(C2(O)CN(c3ccc(Cl)cc3)C3=[N+]2CCCS3)c1 (centres undefined) | 107
O=C(NCCc1csc(-c2ccccc2)n1)[C@H]1CSCN1S(=O)(=O)Cc1ccccc1 | 99
CC1(C)CC(=O)C2=C(C1)Nc1ccc3ccccc3c1C2c1ccc(I)cc1 (centres undefined) | 103
Cc1nc(-c2csc(S(=O)(=O)N3CCCC(C(=O)Nc4nccs4)C3)c2)no1 (centres undefined) | 109
CC1(C)CC(=O)C2=C(C1)Nc1ccccc1N(CC(=O)Nc1ccc(F)cc1)C2c1ccccc1 (centres undefined) | 105
Cc1cc(Br)ccc1N1C(=O)/C(=C/c2ccc(-c3ccc([N+](=O)[O-])cc3)o2)C=C1c1ccccc1 | 126
COc1ccc(C2NC(=S)NC(C)=C2C(=O)Nc2ccc(F)c(F)c2)c(OC)c1 (centres undefined) | 103
COC(=O)C1=CN(Cc2ccc(OC)c(OC)c2)C=C(C(=O)OC)C1c1ccc(Cl)c([N+](=O)[O-])c1 | 109
CCCNC(=O)N1CCc2c(c(COCc3ccc(F)cc3Cl)nn2C)C1 | 104
Cc1cccc(NC(=O)c2cccn3c(-c4ccc(F)cc4)nnc23)c1 | 99
CCOC(=O)CNC(=O)NC1CCN(c2nc3ccccc3n(CC(C)C)c2=O)CC1 | 100

More structures
SMILES | GIV Gai3 FP
Cc1ccc(-c2cc3nc(C)cc(N4CCC(C(=O)Nc5ccccc5Cl)CC4)n3n2)cc1 | 108
O=[N+]([O-])c1cc2c(c([N+](=O)[O-])c1)Nc1ccccc1N=C2c1ccccc1 | 107
CCOc1ccc(C2=NN3C(C2)c2cc(Cl)ccc2OC3c2cccc(Cl)c2)cc1 (centres undefined) | 105
CC1CCc2c(oc3ccc(NS(=O)(=O)c4ccc(C(C)(C)C)cc4)cc23)C1 (centres undefined) | 107
CC(C)C12C=CC(C)(CC1)C1C(=O)N(c3ccccc3)C(=O)C12 (centres undefined) | 105
CCOC(=O)c1sc(NC(=O)CSc2nnc(C)c(=O)[nH]2)nc1C | 119
CCCCCCCCCOC(=O)c1ccc(-c2ccc(-c3ccc(C(=O)OCCCCCCCCC)cc3)cc2)cc1 | 109
COc1ccc(NC(=O)CSc2nc(N3CCc4ccccc4C3)nc3ccccc23)c(OC)c1 | 108
O=C(NCc1csc(-c2ccccc2)n1)[C@H]1CSCN1C(=O)c1ccccc1Br | 103
CNc1oc(Cc2ccccc2)nc1S(=O)(=O)c1ccccc1 | 101

A draw from above in order of molar mass, descending:
SMILES | GIV Gai3 FP
Cc1cc(Br)ccc1N1C(=O)/C(=C/c2ccc(-c3ccc([N+](=O)[O-])cc3)o2)C=C1c1ccccc1 | 126
COC(=O)C1=CN(Cc2ccc(OC)c(OC)c2)C=C(C(=O)OC)C1c1ccc(Cl)c([N+](=O)[O-])c1 | 109
O=C(NCc1csc(-c2ccccc2)n1)[C@H]1CSCN1C(=O)c1ccccc1Br | 103
CC1(C)CC(=O)C2=C(C1)Nc1ccccc1N(CC(=O)Nc1ccc(F)cc1)C2c1ccccc1 (centres undefined) | 105
Cc1ccc(-c2cc3nc(C)cc(N4CCC(C(=O)Nc5ccccc5Cl)CC4)n3n2)cc1 | 108
CCOc1ccc(C2=NN3C(C2)c2cc(Cl)ccc2OC3c2cccc(Cl)c2)cc1 (centres undefined) | 105
CCOC(=O)CNC(=O)NC1CCN(c2nc3ccccc3n(CC(C)C)c2=O)CC1 | 100
CC1CCc2c(oc3ccc(NS(=O)(=O)c4ccc(C(C)(C)C)cc4)cc23)C1 (centres undefined) | 107
CCCNC(=O)N1CCc2c(c(COCc3ccc(F)cc3Cl)nn2C)C1 | 104
CCOC(=O)c1sc(NC(=O)CSc2nnc(C)c(=O)[nH]2)nc1C | 119
O=[N+]([O-])c1cc2c(c([N+](=O)[O-])c1)Nc1ccccc1N=C2c1ccccc1 | 107
Cc1cccc(NC(=O)c2cccn3c(-c4ccc(F)cc4)nnc23)c1 | 99
CNc1oc(Cc2ccccc2)nc1S(=O)(=O)c1ccccc1 | 101
CC(C)C12C=CC(C)(CC1)C1C(=O)N(c3ccccc3)C(=O)C12 (centres undefined) | 105
